Cruzain Triton: qHTS Assay for Promiscuous and Specific Inhibitors of Cruzain (with detergent) | 0.43% of 200,000 active | Potency, µM, without a hit: max response, negative = inhibition, usual class: inhibitors | purified cruzain, Z-FR-AMC fluorescence, 0.01% Triton | Cruzipain (Trypanosoma cruzi), P25779; active = well fitted curve in the direction sought with a large enough effect; inconclusive = small, poorly fitted or top-dose-only effect, or another doubt; inactive = no such curve, though single readings can be large; an effect the other way counts as inactive or inconclusive;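 note: plate controls were neutral wells for no effect and buffer without enzyme for full effect; nearly all actives have a fitted effect of over 40% in size; top concentration of the series not given in the record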
Target sequence (P25779 123-467 limits assumed): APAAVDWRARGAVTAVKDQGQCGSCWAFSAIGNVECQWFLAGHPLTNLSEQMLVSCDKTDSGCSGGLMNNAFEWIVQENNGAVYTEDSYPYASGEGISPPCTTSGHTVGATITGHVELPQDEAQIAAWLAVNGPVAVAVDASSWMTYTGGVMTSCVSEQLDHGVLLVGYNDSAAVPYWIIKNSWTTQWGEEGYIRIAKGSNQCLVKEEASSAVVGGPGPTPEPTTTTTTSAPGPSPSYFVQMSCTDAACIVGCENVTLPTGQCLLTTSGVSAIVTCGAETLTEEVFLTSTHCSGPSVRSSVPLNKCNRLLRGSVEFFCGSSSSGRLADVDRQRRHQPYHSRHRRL
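Steps: dispense cruzain (1.5 nM final) in acetate buffer pH 5.5 with DTT and 0.01% Triton X-100; pin-transfer compounds; incubate 15 min RT; add Z-FR-AMC (2 uM final); read fluorescence every 30 s, using the 60 s intensity change.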
Marburg entry inh: qHTS for inhibitors of binding or entry into cells for Marburg Virus; Marburg virus pseudotyped entry inhibition, cell reporter; control for the full effect not named in the record; about a third of the inactives were read at about 46 µM; Potency, µM (series often up to 37.8 µM), inactives show at the top dose activity change, negative = inhibition, hits mostly inhibitors; 1.8% of 300,000 active; AID 540276, 2011; active = well fitted inhibition curve with a large enough effect; inconclusive = small, poorly fitted or top-dose-only effect, or effect the other way; inactive = flat fitted curve, though single readings scatter; tested in HEK293 cells; about a fifth of its hits are not listed in these tables; note: % is set by controls: 0 for no effect and ±100 for the full control effect; luciferase read-out
Cruzain inh noDet: qHTS Assay for Promiscuous and Specific Inhibitors of Cruzain (without detergent); Cruzipain (Trypanosoma cruzi), P25779; purified cruzain, Z-FR-AMC fluorescence, no detergent; 2.3% of 200,000 active; Potency, µM, for inactives: max response, negative = inhibition, most hits filed as inhibitors; active = well fitted curve in the direction sought with a large enough effect; inconclusive = small, poorly fitted or top-dose-only effect, or another doubt; inactive = no such curve, though single readings can be large; an effect the other way counts as inactive or inconclusive;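 note: plate controls were enzyme without inhibitor for no effect and buffer without enzyme for full effect; nearly all actives have a fitted effect of over 40% in size; top concentration of the series not given in the record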
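Purified cruzain at 1.5 nM, pre-incubated 15 min with compound at room temperature in 100 mM sodium acetate pH 5.5, 5 mM DTT, 0.00005% Triton X-100. Reaction started with 2 uM Z-FR-AMC; AMC fluorescence increase over 60 s gives rate.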
NS1 function inh: qHTS Assay for Inhibitors of Influenza NS1 Protein Function. S. cerevisiae slowed by influenza A NS1, growth recovery by OD600. Potency, µM (doses to about 46.1 µM), inactives show top-dose activity, positive = more growth. 0.4% of 270,000 active. AID 2326, 2010; note: actives are rising curves; nearly all actives have a fitted effect of over 50% in size
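A cell-based growth assay was used: compounds that relieve NS1-induced slow growth of budding yeast raise OD600. Assay medium was yeast nitrogen base with ammonium sulphate and -URA supplement, pH 6.0, with 2% galactose.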
StopGo reporter: High Throughput Screening for Foot and Mouth Disease Virus Antivirals; human cells with a luciferase reporter of 2A StopGo recoding; control for the full effect not named in the record; Potency, µM (series often up to 57.9 µM), for inactives: at the highest dose signal change, negative = less light; AID 1159524, 2015; 1.2% of 410,000 active; active = well fitted falling curve with a large enough effect; inconclusive = small, poorly fitted or top-dose-only effect; inactive = no such curve, though single readings can be large or run the other way; tested in HEK293T cells; note: % is set by controls: 0 for no effect and ±100 for the full control effect; nearly all actives have a fitted effect of over 45% in size; luciferase light after 4 h
LASV entry inh: qHTS for Inhibitors of binding or entry into cells for Lassa Virus; 1.2% of 300,000 active; Potency, µM (titrated, usually from 37.9 µM), for inactives: at the highest dose activity change, negative = inhibition, actives largely listed as inhibitors; Lassa virus pseudotype entry inhibition, cell reporter; control for the full effect not named in the record; active means well fitted inhibition curve with a large enough effect; inconclusive means small, poorly fitted or top-dose-only effect, or effect the other way; inactive means flat fitted curve, though single readings scatter; tested in HEK293 cells; note: % is set by controls: 0 for no effect and ±100 for the full control effect; nearly all actives have a fitted effect of over 50% in size; luciferase read-out
RE007 growth inh: qHTS Assay for Inhibitors of the HIV-1 protein Vpr; S. pombe RE007 Vpr strain, BacTiter-Glo ATP luminescence, 24 h; control for the full effect not named in the record; AID 651644, 2012; 0.21% of 360,000 active; Potency, µM (series often up to 92.2 µM), inactives show top-dose activity change, negative = less growth; active = well fitted falling curve with a large enough effect; inconclusive = small, poorly fitted or top-dose-only effect; inactive = no such curve, though single readings can be large or run the other way;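 note: % is set by controls: 0 for no effect and ±100 for the full control effect; nearly all actives have a fitted effect of over 50% in size; the assay follows cell death caused by Vpr and the record does not say whether a fall means rescue or toxicity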
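Fission yeast RE007 carrying one integrated HIV-1 vpr copy, seeded at OD 0.01 in PMG+AL medium with 23 nL pinned compound. Grown 24 h at 30 degrees; viability read by BacTiter-Glo luminescence after 5 min.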
SARS PLP yeast: qHTS of Yeast-based Assay for SARS-CoV PLP | AID 485353, 2010 | Potency, µM (highest dose often 32.9 µM), for the others: at the highest dose activity, positive = growth rescue | 0.19% of 330,000 active | S. cerevisiae expressing SARS-CoV PLpro, growth rescue; control for the full effect not named in the record; note: 0% is about no effect; nearly all actives have a fitted effect of over 55% in size; growth read by luminescence after 48 h
* = called active by the depositor; ? = inconclusive; nt = not tested or not shown; & = joins results of further samples; [ ] = another dose, or the depositor's remark. Unless noted, calls come from the whole dose curve; as a rule, active means well fitted rising curve with a large enough effect; inconclusive means small, poorly fitted or top-dose-only effect; inactive means no such curve, though single readings can be large or run the other way. Potency is the fitted concentration of half-maximal effect.

SMILES	Cruzain Triton	Marburg entry inh	Cruzain inh noDet	NS1 function inh	StopGo reporter	LASV entry inh	RE007 growth inh	SARS PLP yeast
O=C(NCCCN1CCCC1=O)C(=O)NCC1OCCN1S(=O)(=O)c1ccc(Cl)cc1 (stereo not given)	nt	27%	nt	10%	-8%	9%	0%	22%
C=CCn1c(CSCc2ccc(Cl)cc2Cl)nnc1SCC(=O)Nc1ccc(C(=O)O)cc1	nt	nt	nt	13%	?	nt	8%	0%
O=C(Nn1cnnc1)c1csc2ccccc12	0.3%	-4%	-4%	?	5%	-19%[14.3 µM]	-6%	0%
O=C(CNC(=O)Cn1cnc2sc3c(c2c1=O)CCCC3)NCc1ccccn1	-2.4%	14%	0%	9%	nt	-2%	3%	-3%
CCCCc1ccc(NC(=O)CSc2nc(=O)n(CCN3CCOCC3)c3c2CCC3)cc1	nt	-6%	nt	nt	-7%	1%[46.1 µM]	1%	1%
Cc1ccc(C2=[N+]([O-])C(C)(C)N(O)C2(C)C)cc1	-1.4%	1%	6%	12%	-17%	8%	2%	14%
O=C(N/N=C\c1c(O)ccc2ccccc12)c1ccc(Cn2cccn2)o1	-3.3%	5.8µM*	3%	?	?	13µM*	1%	?
CC1=Nc2ccc(C)cc2/C1=C/c1c(N)n2nc(CC(=O)N3CCOCC3)sc2nc1=O	nt	nt	nt	-4%	-2%	nt	-10%	-6%
Cc1ccc(NS(=O)(=O)c2ccc3c(c2)oc(=O)n3C)cc1	nt	?	nt	11%	9%	-8%	6%	-1%
CCOC(=O)c1ccc(N2C(=O)CC(N3CCN(C(=O)c4ccccc4)CC3)C2=O)cc1 (stereo not given)	nt	-6%	nt	-9%	-21%	1%	?	-4%
CCC(C)(C)NC(=O)C(OC(=O)c1ccco1)c1ccccc1OC (stereo not given)	1.3%	-8%	-4%	-1%	9%	0%	15%	4%
Cc1ccc(NC(=O)CCN2C(=O)CSC2=O)cc1	-0.3%	22%	10%	8%	2%	21%	3%	6%
CS(=O)(=O)Cc1ccc(C(=O)NC2CCCc3ccccc32)cc1 (stereo not given)	nt	?	nt	13%	18%	-5%[46.1 µM]	-11%	2%
CCCCC(=O)N1CC(=O)Nc2ccc(F)cc2C1c1ccccc1 (stereo not given)	nt	4%[46.1 µM]	nt	3%	-11%	-10%[46.1 µM]	16%	2%
Cc1c(NC(=O)CN2C(=O)NC(CCc3ccccc3)C2=O)c(=O)n(-c2ccccc2)n1C (stereo not given)	nt	15%[46.1 µM]	nt	nt	-2%	-4%[46.1 µM]	2%	0%
CCCCN(C(=O)c1ccc(N2CCCC2=O)cc1)c1c(N)n(Cc2ccccc2)c(=O)[nH]c1=O	nt	1%	nt	nt	11%	-25%	20%	2%
Fc1ccc(C2CC(c3cccs3)=NN2c2ccccc2)cc1 (stereo not given)	nt	?	nt	nt	?	?	7%	12%
CCCCCC(=O)c1ccc(O)cc1O	nt	?	nt	nt	-1%	28%[46.1 µM]	2%	-17%
Cc1cccc(N2CCN(C(=O)c3c(C)nn(Cc4ccccc4Cl)c3C)CC2)c1C	-3.6%	?	22%	6%	35µM*	?	2%	-25%
O=S(=O)(Nc1cccc(Oc2cnccn2)c1)c1ccc(F)cc1	nt	18%[46.1 µM]	nt	-6%	2%	7%	-7%	0%
CCCN(CCC)C(=O)CSc1nnc2cc(C)c3ccccc3n12	-1.5%	-24%[46.1 µM]	-11%	nt	-11%	13%[46.1 µM]	nt	nt
Cc1cc(C)c(C#N)c(SCc2ccc(C(=O)O)cc2)n1	nt	0%[46.1 µM]	nt	-12%	-12%	?	-3%	2%
Sc1oc(-c2ccccc2)cc1C=Nc1ccccc1	0.9%	-25%	?	-48%	84%[activator]	1%	-14%	-26%
Cc1ccc(NC(=O)Nc2cc(S(C)(=O)=O)ccc2Cl)cc1	nt	12%[46.1 µM]	nt	-2%	34%[activator]	-4%	-2%	0%
O=C1CCC(C(=O)N2CCCCO2)CN1CCc1ccc(Cl)cc1 (stereo not given)	nt	18%	nt	8%	5%	?	-5%	2%
COc1ccccc1C(=O)NCCC(=O)NC(C)c1ccc(-n2ccnc2)cc1 (stereo not given)	nt	18%	nt	nt	-8%	5%	-6%	-2%
Cc1cccnc1NC(=O)C12CCC(C)(C(=O)O1)C2(C)C (stereo not given)	4.9%	-17%	-5%	-1%	-4%	2%	-6%	6%
CCN(CC)C(=O)Cn1cc(C(=O)C(=O)N2CCN(C)CC2)c2ccccc21	nt	-2%	nt	5%	-19%	7%	-13%	-3%
COc1ccc(C(=O)c2oc3ccccc3c2NC(=O)c2cccc(OC)c2)cc1	-0.3%	nt	1%	nt	-8%	-3%[46.1 µM]	nt	nt
CCSc1ncc(Cl)c(C(=O)Nc2ccc(S(=O)(=O)Nc3ncccn3)cc2)n1	-1.8%	17%&17%[46.1 µM]	-9%	3%	-4%&-10%	-9%[46.1 µM]	14%	4%
Cc1cccc(CNC(=O)Cn2nc(C)c3nn(-c4ccc(Cl)cc4)c(C)c3c2=O)c1	0.3%	nt	-3%	nt	-23%	0%[46.1 µM]	nt	nt
CCc1ccc2c(CSc3nnnn3C)cc(=O)oc2c1	nt	8%[46.1 µM]	nt	-5%	33%[activator]	-6%[46.1 µM]	12%	-2%
O=C(COC(=O)Cc1ccccc1F)NNC(=O)c1ccc([N+](=O)[O-])cc1	nt	-3%[46.1 µM]	nt	nt	-13%	4%	4%	3%
Cc1nn(-c2ccccc2)c2sc(C(=O)C(C#N)c3ccccn3)cc12 (stereo not given)	-5.0%	-4%	-12%	7%	nt	nt	nt	11%
COc1cc(CCC(=O)Nc2cc(C)cc(C)c2)cc(OC)c1OC	nt	-22%[46.1 µM]	nt	nt	-11%	-6%	1%	-1%
O=C(COC(=O)c1cccs1)NC12CC3CC(CC(C3)C1)C2	nt	4%&4%[46.1 µM]	nt	nt	-9%	8%[46.1 µM]	11%	-8%
COc1ccc2oc(C(=O)OCC(=O)c3ccc4c(c3)OCCO4)c(C)c2c1	4.1%	?	?	-14%	?	16µM*	-1%	11%
COc1cc2cc(C(=O)NCCc3ccccc3)[nH]c2cc1OC	nt	25%	nt	-3%	16%	-14%	12%	0%
NS(=O)(=O)c1ccc(NC(=O)Cn2ncc3c2-c2ccccc2OC3)cc1	0.7%	nt	1%	6%	-23%	nt	3%	2%
CC(C)(O)CCCC(C)(O)c1ccc(C(=O)O)cc1O (stereo not given)	nt	nt	nt	4%	-11%	nt	0%	1%
COc1ccc(-c2nn(-c3ccccc3)cc2/C=N/NC(N)=S)cc1OC	1.6µM*	?	0.63µM*	?	-16%	?	-1%	25%
CC1C(c2ccccc2)=[N+]([O-])C2(CCCCC2)N1O (stereo not given)	-1.0%	?	-4%	4%	-25%	8%	0%	?
COc1ccc(N(CC(=O)Nc2cc(Cl)ccc2C)S(=O)(=O)c2c(C)noc2C)cc1	-6.3%	?	3%	-7%	?	-20%[46.1 µM]	1%	-2%
O=C(C1CC1)N1CCc2cc(Br)cc(S(=O)(=O)N3CCN(c4cccc(C(F)(F)F)c4)CC3)c21	-1.3%	2%[46.1 µM]	7%	nt	-1%	15%[46.1 µM]	nt	nt
COc1cc(NC(=O)C2CC(c3cccc(OC)c3OC)=NO2)cc(OC)c1OC (stereo not given)	-4.1%	?	-7%	-3%	?	?	-3%	0%
CC(=O)c1ccc(NC(=O)COC(=O)c2ccc(F)cc2F)cc1	nt	21%[46.1 µM]	nt	-12%	11%	8%	-23%	-3%
Cn1c(N)c(C(=O)COC(=O)c2cncc(Br)c2)c(=O)n(C)c1=O	nt	2%[46.1 µM]	nt	nt	-21%	11%	-26%	-2%
Cc1ccc(S(=O)(=O)N2CCN(CC(=O)N/N=C/c3ccco3)CC2)cc1	-4.7%	?	7%	11%	-8%	-1%	9%	-11%
Nc1c(C(=O)Nc2ccc3c(c2)OCCO3)nnn1Cc1cccc(F)c1	nt	-29%[46.1 µM]	nt	nt	50%[activator]	12%	-1%	10%
COCCCN(C(=S)Nc1c(C)cc(C)cc1C)C(C)c1ccccn1 (stereo not given)	nt	-8%[46.1 µM]	nt	-1%	-5%	12%[46.1 µM]	-1%	0%
O=C(NC1CC1)C1CCN(C2CCN(C(=O)/C=C/c3cccs3)CC2)CC1	nt	?	nt	0%	1%	-1%[46.1 µM]	1%	4%
CCCCN(CC)CCCNC(=O)c1cc2cc3ccc(OC)cc3nc2o1	?	?	?	-10%	-11%	-4%	8%	-3%
O=C(COC(=O)c1cc(S(=O)(=O)N2CCCCC2)ccc1N1CCOCC1)c1ccc(F)cc1	nt	1%[46.1 µM]	nt	nt	-11%	?	7%	1%
CC(C)(c1ccccc1)c1ccc(OCC(O)CN2CCCC2)cc1 (stereo not given)	nt	2.8µM*	nt	3%	-1%	?	21%	-3%
Cc1ccc(C)c(OCC(=O)NCCN(C)C)c1	-1.0%	-6%	2%	4%	-9%	6%	8%	0%
CCOC(=O)/C=C/C(=O)NNC(=O)c1ccccc1Cl	nt	-15%	nt	0%	-3%	-5%	-14%	1%
O=C(COC(=O)/C=C/c1ccccc1[N+](=O)[O-])Nc1ccc(OC(F)F)cc1	-0.9%	-1%	-21%	-2%	-20%	?	nt	-2%
COc1ccc(COC(=O)N/N=C(\C)CC(=O)NCc2ccc(Cl)cc2)cc1	nt	11%[46.1 µM]	nt	nt	3%	?	3%	0%
O=C(Nc1cc2c3c(c1)CC(=O)N3CCC2)C1CC1	nt	0%[46.1 µM]	nt	nt	-15%	8%	1%	-2%
Cc1cc(=O)n2nc(N3CCC(C(=O)N4CCN(c5ccccc5)CC4)CC3)sc2n1	nt	?	nt	23%	-23%	6%[46.1 µM]	-2%	2%
COc1cc(NC(=O)C2CC(=O)NC3=C2C(=O)CCC3)c(OC)cc1Cl (stereo not given)	0.3%	4%	1%	5%	-13%	-3%	13%	2%
CCOc1ccccc1-c1nc2c([nH]1)c(=O)n(C)c(=O)n2C	-1.6%	-16%	7%	-20%	-12%	-14%	-12%	-2%
Cc1c(Cl)cccc1NC(=O)CNC(=O)C1CC(=O)N(CCc2ccccc2)C1 (stereo not given)	nt	nt	nt	nt	-16%	14%	3%	-14%

Random draw from the library; overall some 4.7% were active at least once.
